eIF4H inh: inhibitors of RNA binding by human eIF4H; eIF4H fluorescence polarization binding assay; 0.94% of 290,000 active; AID 2012; Q15056; inhibition, % at 35 µM;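 active = 50% or more with normal probe brightness, or confirmed in later tests; inconclusive = above 50% with abnormal brightness, or retests that disagree; inactive = below 50% or failed in later tests; about a fifth of its hits are not listed in these tables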;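 also: calls also rest on retests at 20 µM and on dose response follow-up; 0% = protein and probe with vehicle and 100% = probe without protein; strong numbers were not always called active; many hits fall short of the cut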
Rce1 inhib: yeast Ras-converting enzyme inhibition | 0.27% of 290,000 active | calls only | yeast membranes, quenched prenylated peptide cleavage fluorescence;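 active = fall in fluorescence gain of 50% or more versus controls, with final raw signal at or below 3038400; inconclusive = same 50% fall but final raw signal above 3038400; inactive = fall in fluorescence gain under 50%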;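 also: plate controls were neutral control wells for no effect and wells lacking membranes for full effect; tested at 10 µM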
Target sequence (Q03530 whole entry, looked up): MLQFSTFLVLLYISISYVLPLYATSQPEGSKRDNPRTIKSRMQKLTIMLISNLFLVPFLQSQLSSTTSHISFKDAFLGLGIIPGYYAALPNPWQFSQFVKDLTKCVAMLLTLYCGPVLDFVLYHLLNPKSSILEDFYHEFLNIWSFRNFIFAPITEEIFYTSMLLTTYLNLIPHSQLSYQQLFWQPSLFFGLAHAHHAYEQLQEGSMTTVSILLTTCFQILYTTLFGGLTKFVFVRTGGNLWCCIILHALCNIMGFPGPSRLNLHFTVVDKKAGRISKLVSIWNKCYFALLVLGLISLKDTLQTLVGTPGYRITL
PABP FP inh: PABP-poly(A) binding inhibition; P11940; PABP-poly(A) RNA binding, fluorescence polarization; inhibition, % at 35 µM; 1% of 290,000 active; AID 2014;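 active = 50% or more with normal probe brightness, or confirmed in later tests; inconclusive = above 50% with abnormal brightness, or retests that disagree; inactive = below 50% or failed in later tests; about a fifth of its hits are not listed in these tables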;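 also: calls also rest on retests at 20 µM and on dose response follow-up; controls were probe without protein and protein plus probe with vehicle; some compounds called inactive have numbers as strong as hits; many hits fall short of the cut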
MT1-MMP act inh: inhibitors of human MT1-MMP activation | GFP/RFP ratio change, % at 20 µM | 0.061% of 360,000 active | P50281 | HT1080 RFP-PRO-GFP cells, GFP/RFP ratio fluorescence, overnight; percent of plate control window, DMSO zero | AID 651647;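 active = GFP/RFP ratio change of at least 30% with cell ATP level not reduced by more than half and red fluorescence within 50% of control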; also: strong numbers were not always called active
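Test system: HT1080 RFP-PRO-GFP cells; Benchmarks: DMSO and RFP-L50D-GFP cell wells; Timing: cells overnight before dosing, compound overnight, 37 °C, 5% CO2; Compound: one 20 µM compound dose with 1% DMSO; Read-out: GFP/RFP fluorescence ratio.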
CSC inhib: cancer stem cell inhibition; cancer stem cell-like cells viability, luminescence; 1.1% of 300,000 active; inhibition, % at 7.5 µM;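 active = mean at 75% or more and at least half the replicates too; inconclusive = mean and replicates disagree; tested in HMLE shEcad cells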;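 also: 0% = median of negative and 100% = median of positive control wells; the first replicate is given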
Yeast UUG start: modulators of start codon recognition fidelity in yeast | S. cerevisiae UUG-firefly luciferase reporter, luminescence/redox ratio | AID 602363 | activity score, % at 18.7 µM | 0.13% of 350,000 active;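 active = replicate mean at a twofold rise or more, about +100% in these data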;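 also: firefly luciferase made from a UUG start codon reports start codon fidelity; reporter light over untreated wells divided by growth signal over untreated wells; some hits fall short of that in this replicate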
Env fusion inh: HIV envelope-mediated fusion inhibition; HeLa-JRFL Env/CEM21 cell fusion, luciferase; AID 651610; inhibition, % at 12.3 µM; 1.1% of 360,000 active;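 active = mean replicate inhibition score of at least 50 and every replicate individually at or above 50; inconclusive = only one of the two criteria met; inactive = mean below 50 and not all replicates reaching 50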;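 also: 0% = plate neutral controls and 100% = maraviroc near 300 nM; one replicate is shown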
eIF4H inh retest: also measured in eIF4H inh; calls as there; inhibition, %; compound at 20 µM; confirmation average;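 mean of two retest wells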
PABP FP inh retest: further read-out of PABP FP inh, marked with its call; inhibition, %; compound at 20 µM; confirmation repeats;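 mean of two retest wells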
MT1-MMP act inh RFP: further read-out of MT1-MMP act inh, marked with its call; RFP signal change, %; measured here: RFP expression control read;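 0 = vehicle wells; hits needed this value within 50% of zero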
* = called active by the depositor; & = joins results of further samples; [ ] = remark or other dose.

CC(Sc1nnc(N)s1)C(=O)NCc1ccc2c(c1)OCO2 (stereo not given) was read as MT1-MMP act inh 2, Yeast UUG start -19, Env fusion inh -10 and MT1-MMP act inh RFP 1.
Cc1ccc(NC(=O)C2CCN(S(=O)(=O)c3ccc4c(c3)NC(=O)C(C)S4)CC2)c(Cl)c1 (stereo not given) was read as eIF4H inh 62, Rce1 inhib inactive, PABP FP inh 8, MT1-MMP act inh -16, CSC inhib 4, Yeast UUG start -17, Env fusion inh 0, eIF4H inh retest 12, PABP FP inh retest 12 and MT1-MMP act inh RFP -20.
Screening Cc1ccc(C)c(S(=O)(=O)N2CCN(C(=O)CSC(=S)N3CCCC3)CC2)c1 returned Rce1 inhib inactive, MT1-MMP act inh 1, CSC inhib -9 and MT1-MMP act inh RFP 1.
For CCn1cc(CN2CCN(Cc3cccc(OC)c3)C(CCO)C2)c(C)n1 (stereo not given) the results were eIF4H inh -6, Rce1 inhib inactive, PABP FP inh -14, MT1-MMP act inh 1, CSC inhib -4, Env fusion inh 10 and MT1-MMP act inh RFP 6.
For CCOc1ccc(S(=O)(=O)N2CCOCC2)c2ccccc12 the results were eIF4H inh 3, Rce1 inhib inactive, PABP FP inh -5, MT1-MMP act inh -3, CSC inhib -8, Yeast UUG start -12, Env fusion inh 20 and MT1-MMP act inh RFP 1.
`COc1ccc(NC(=O)C2C3C=CC4(O3)C2C(=O)N(CCCN2CCCC(C)C2)C4C(=O)NC2CCCCC2)cc1` (stereo not given) gave eIF4H inh -5, PABP FP inh -4, MT1-MMP act inh -4, CSC inhib -9, Yeast UUG start 2, Env fusion inh -11 and MT1-MMP act inh RFP 2.
For COc1ccccc1C(=O)NCCC(=O)Nc1ccc(C)cn1 the results were eIF4H inh -10, Rce1 inhib inactive, PABP FP inh 2, MT1-MMP act inh -2, CSC inhib -9, Yeast UUG start -16, Env fusion inh 22 and MT1-MMP act inh RFP 2.
`Cc1nc(CC(=O)NNS(=O)(=O)c2cccc(Cl)c2Cl)cs1` gave MT1-MMP act inh 0, CSC inhib -16, Yeast UUG start -27, Env fusion inh 2 and MT1-MMP act inh RFP 2.
For COc1cc(NC(=O)Cn2ncc3c2-c2ccccc2OC3)cc(OC)c1OC the results were eIF4H inh 8, Rce1 inhib inactive, PABP FP inh 5, MT1-MMP act inh -2, CSC inhib -6, Yeast UUG start 11, Env fusion inh 11 and MT1-MMP act inh RFP -6.
Screening Cc1ccc(NS(=O)(=O)c2ccc(Cl)s2)nc1 returned eIF4H inh 2, Rce1 inhib inactive, PABP FP inh 4, MT1-MMP act inh 2, CSC inhib -2, Yeast UUG start -14, Env fusion inh 8 and MT1-MMP act inh RFP 2.
For Cc1ccc(S(=O)(=O)N(C)C)cc1NC(=O)COC(=O)Cc1cccs1 the results were Rce1 inhib inactive, MT1-MMP act inh 4, CSC inhib -13, Yeast UUG start -3, Env fusion inh -4 and MT1-MMP act inh RFP 7.
`CCOC(=O)C1=C(COC(=O)C(CC)Oc2ccccc2)NC(=O)NC1C` (stereo not given) gave Rce1 inhib inactive, MT1-MMP act inh 0, CSC inhib 8, Env fusion inh 4 and MT1-MMP act inh RFP 3.
Screening Cc1ccn2c(=O)nc(SCC(=O)Nc3ccc4c(c3)OCCO4)nc2c1 returned Rce1 inhib inactive, MT1-MMP act inh -5, CSC inhib 11, Yeast UUG start -2, Env fusion inh 8 and MT1-MMP act inh RFP 4.
`Cc1nn2c(-c3ccccc3)ccnc2c1-c1ccccc1` gave eIF4H inh -12, Rce1 inhib inactive, PABP FP inh 1, MT1-MMP act inh -3, CSC inhib 16, Yeast UUG start -13, Env fusion inh -379 and MT1-MMP act inh RFP -4.
For O=C(CN(Cc1ccccc1)S(=O)(=O)c1ccc(Br)cc1)NCc1ccco1 the results were eIF4H inh -2, Rce1 inhib inactive, PABP FP inh 13, MT1-MMP act inh 3, CSC inhib 13, Yeast UUG start -1, Env fusion inh 5 and MT1-MMP act inh RFP 0.
CCN(CC)S(=O)(=O)c1cccc(C(=O)NC(C(=O)Nc2nnc(C3CC3)s2)C(C)C)c1 (stereo not given) was read as eIF4H inh 13, Rce1 inhib inactive, PABP FP inh -7, MT1-MMP act inh 13, CSC inhib -3, Env fusion inh -31 and MT1-MMP act inh RFP 0.
O=C(COC(=O)c1cc([N+](=O)[O-])ccc1NCCO)c1ccc(Cl)cc1 was read as eIF4H inh -10, Rce1 inhib inactive, PABP FP inh -7, MT1-MMP act inh 1, CSC inhib 3, Env fusion inh 14 and MT1-MMP act inh RFP 3.
For COc1ccc(C(=O)NCCc2ccc(C)cc2)cc1OC1CCN(C(C)=O)CC1 the results were eIF4H inh -7, Rce1 inhib inactive, PABP FP inh -9, MT1-MMP act inh 2, CSC inhib -7, Yeast UUG start -2, Env fusion inh -16 and MT1-MMP act inh RFP 1.
Screening CC1=CC(=O)N(c2ccn(C)n2)C1=O returned eIF4H inh 1, Rce1 inhib inactive, PABP FP inh 5, MT1-MMP act inh -1, CSC inhib -10, Env fusion inh 3 and MT1-MMP act inh RFP -1.
Screening CCOC(=O)C(=O)NNc1cccc(C)c1C returned eIF4H inh -2, Rce1 inhib inactive, PABP FP inh 1, MT1-MMP act inh -2, CSC inhib 34, Yeast UUG start 9, Env fusion inh 16 and MT1-MMP act inh RFP 1.
COc1ccc(NC(=O)Nc2ccc3c(c2)C(=O)N([C@@H](C)CO)C[C@@H](C)[C@@H](CN(C)S(=O)(=O)c2cn(C)cn2)O3)cc1 was read as MT1-MMP act inh 1, Yeast UUG start -12&-8, Env fusion inh 7[16.7 µM] and MT1-MMP act inh RFP 2.
`CC1CCCC(NC(=O)C2N(CCCN3CCCC3)C(=O)C3C(C(=O)Nc4ccc(Cl)cc4)C4C=CC32O4)C1C` (stereo not given) gave eIF4H inh -6, Rce1 inhib inactive, PABP FP inh -3, MT1-MMP act inh 0, CSC inhib 2, Yeast UUG start 1, Env fusion inh 20 and MT1-MMP act inh RFP 0.
O=S(=O)(NCCN1CCOCC1)c1ccc(-c2ccc(S(=O)(=O)NCCN3CCOCC3)cc2)cc1 was read as eIF4H inh 0, Rce1 inhib inactive, PABP FP inh 3, MT1-MMP act inh 7, CSC inhib -9, Yeast UUG start -11, Env fusion inh 10 and MT1-MMP act inh RFP -8.
`COC(=O)c1[nH]cnc1C(=O)c1ccccc1` gave eIF4H inh -11, Rce1 inhib inactive, PABP FP inh -6, MT1-MMP act inh 0, Yeast UUG start 1 and MT1-MMP act inh RFP 0.

A section from further up, for reference:
O=S(=O)(NCCN1CCOCC1)c1ccc(-c2ccc(S(=O)(=O)NCCN3CCOCC3)cc2)cc1 was read as eIF4H inh 0, Rce1 inhib inactive, PABP FP inh 3, MT1-MMP act inh 7, CSC inhib -9, Yeast UUG start -11, Env fusion inh 10 and MT1-MMP act inh RFP -8.
`COC(=O)c1[nH]cnc1C(=O)c1ccccc1` gave eIF4H inh -11, Rce1 inhib inactive, PABP FP inh -6, MT1-MMP act inh 0, Yeast UUG start 1 and MT1-MMP act inh RFP 0.

New compounds follow:
`CN(CCO)C1=CC(=O)CC(C)(C)C1` gave eIF4H inh -5, Rce1 inhib inactive, PABP FP inh 10, MT1-MMP act inh -2, CSC inhib -3, Yeast UUG start -11, Env fusion inh -118 and MT1-MMP act inh RFP 1.
COc1ccc(C(=O)N/C(=C\c2cc(OC)c(OC)cc2[N+](=O)[O-])C(=O)NCC(=O)O)cc1 was read as eIF4H inh -1, Rce1 inhib inactive, PABP FP inh 2, MT1-MMP act inh -5, CSC inhib 35, Env fusion inh -15 and MT1-MMP act inh RFP -2.
`CCn1c(C)c(C(=O)c2ccccc2)c(C#N)c1C(=O)O` gave eIF4H inh 1, Rce1 inhib inactive, PABP FP inh 1, MT1-MMP act inh 0, CSC inhib 8, Yeast UUG start -11, Env fusion inh 6 and MT1-MMP act inh RFP 1.
Cc1ccc(-c2ccccc2NC(=O)CCl)o1 was read as eIF4H inh -5, Rce1 inhib inactive, PABP FP inh -10, MT1-MMP act inh -9, CSC inhib -16, Yeast UUG start -4 and MT1-MMP act inh RFP 4.
CC(C)(C)c1ccc(OCC(=O)NCCN2CCCC2)cc1 was read as eIF4H inh -6, Rce1 inhib inactive, PABP FP inh 2, MT1-MMP act inh 1, CSC inhib -13, Yeast UUG start -20, Env fusion inh -72 and MT1-MMP act inh RFP 5.
Screening O=[N+]([O-])c1ccc(/C=N/n2c(C3CCCCC3)n[nH]c2=S)cc1 returned eIF4H inh -7, Rce1 inhib inactive, PABP FP inh -8, MT1-MMP act inh 4, CSC inhib -5, Yeast UUG start -9, Env fusion inh -14 and MT1-MMP act inh RFP -10.
`CC(NC(=O)c1ccc(CS(=O)(=O)c2cccc(C(F)(F)F)c2)o1)c1ccc2c(c1)OCCO2` (stereo not given) gave eIF4H inh -4, Rce1 inhib inactive, PABP FP inh 4, MT1-MMP act inh 2, CSC inhib 11, Env fusion inh 4 and MT1-MMP act inh RFP -1.
Screening CCCOC(=O)c1ccc(NC(=O)CSC2=Nc3ccccc3C3CC=NN23)cc1 (stereo not given) returned eIF4H inh -2, Rce1 inhib inactive, PABP FP inh -9, MT1-MMP act inh 2, CSC inhib -4, Yeast UUG start -7, Env fusion inh -87 and MT1-MMP act inh RFP 1.
Screening CC(C)(C)c1nc(SCC(=O)Nc2nc3c(s2)CCCC3)c2ccccc2n1 returned eIF4H inh -11, Rce1 inhib inactive, PABP FP inh -14, MT1-MMP act inh -42, CSC inhib 119*, Yeast UUG start -8 and MT1-MMP act inh RFP -28.
O=C(Nc1ccn(C2CC(OC(=O)c3ccccc3)C(CO)O2)c(=O)n1)c1ccccc1 (stereo not given) was read as eIF4H inh -3, Rce1 inhib inactive, PABP FP inh -2, MT1-MMP act inh 3, CSC inhib -5, Yeast UUG start -8 and MT1-MMP act inh RFP 4.
O=C(COC(=O)CNC(=O)c1ccccc1)Nc1nnc(-c2ccccc2)o1 was read as Rce1 inhib inactive, MT1-MMP act inh 3, CSC inhib -2, Yeast UUG start -22, Env fusion inh -1 and MT1-MMP act inh RFP 4.
For N#CC1=C(N)N(c2ccccc2C#N)C2=C(C(=O)CCC2)C1c1ccsc1 (stereo not given) the results were eIF4H inh inconclusive, Rce1 inhib inactive, PABP FP inh inconclusive, MT1-MMP act inh -11, CSC inhib 1, Yeast UUG start -7, Env fusion inh -50 and MT1-MMP act inh RFP 4.
For Cc1cccc(NC2=NCC(=O)N2Cc2cccs2)c1 the results were eIF4H inh -10, Rce1 inhib inactive, PABP FP inh -8, MT1-MMP act inh 1, CSC inhib -15, Env fusion inh 20 and MT1-MMP act inh RFP 1.
For Cc1ccn2c(=O)c(C(=O)O)cnc2c1 the results were eIF4H inh 2, Rce1 inhib inactive, PABP FP inh 6, MT1-MMP act inh 0, CSC inhib -14, Yeast UUG start 28, Env fusion inh -15 and MT1-MMP act inh RFP -1.
O=C(O)c1ccc(NCc2ccncc2)cc1 was read as eIF4H inh 5, Rce1 inhib inactive, PABP FP inh 11, MT1-MMP act inh 1, CSC inhib -10, Yeast UUG start -8, Env fusion inh -25 and MT1-MMP act inh RFP 3.
C#CCOc1c(Br)cc(/C=N/O)cc1OCC was read as eIF4H inh -2, Rce1 inhib inactive, PABP FP inh 2, MT1-MMP act inh -3, CSC inhib -13, Yeast UUG start 8 and MT1-MMP act inh RFP -5.
For CCOC(=O)C1CCN(C(=O)Nc2ccc(NC(=O)C3CCN(C(=O)OCC)CC3)cc2)CC1 the results were eIF4H inh 1, Rce1 inhib inactive, PABP FP inh -2, MT1-MMP act inh 7, CSC inhib -9, Yeast UUG start -10 and MT1-MMP act inh RFP 3.

This is a subset; the hit share may differ from the screen's.
